Screens as filed in PubChem BioAssay.
Calb FLC = C. albicans growth modulation with fluconazole | C. albicans CaCi-2 (fluconazole-resistant clinical isolate) + fluconazole, Alamar Blue growth, 48 h | growth inhibition, % (test concentration not listed) | hit rate 0.57% among 300,000;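 active = most replicates above 75%; inconclusive = exactly half above 75%; inactive = most below 75%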;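 note: all wells also contain fluconazole at 8 µg/ml as a sub-toxic cotreatment; 0% = median of DMSO wells and 100% = median of geldanamycin control wells; wells of about 8 µL received 7.5 nL stock; the first replicate is given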
Beta cell apopt = beta cell apoptosis inhibition. protection from apoptosis, % (test concentration not listed). INS-1E cytokine-induced death, ATP luminescence, 48 h; percent of positive-control rescue, neutral wells zero. hit rate 0.8% among 300,000;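 active = all replicates at 75% or more, or half of them and the mean; inconclusive = half reach 75% but not the mean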;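 note: 0% = cytokine-treated negative control wells and 100% = positive control rescue; higher means more ATP so stronger rescue from cytokine killing; wells of about 40 µL received 100 nL stock; the first replicate is given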
LANA-H2B inh = blocks KSHV LANA binding to histone H2A/H2B; Q9QR71; inhibition, % (test concentration not listed); cell-free LANA-H2A/H2B peptide, fluorescence polarization; hit rate 0.6% among 320,000; in the data active = inhibition mostly above about 10%, no sharp cut-off; inactive = mostly below about 6.7%;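 note: stock transfer was 7.5 nL into about 10 µL; 0% = median of vehicle wells and 100% = median of positive control wells; one replicate is shown; the record names a cut of 25% in any replicate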
Target sequence (Q9QR71 whole entry, looked up): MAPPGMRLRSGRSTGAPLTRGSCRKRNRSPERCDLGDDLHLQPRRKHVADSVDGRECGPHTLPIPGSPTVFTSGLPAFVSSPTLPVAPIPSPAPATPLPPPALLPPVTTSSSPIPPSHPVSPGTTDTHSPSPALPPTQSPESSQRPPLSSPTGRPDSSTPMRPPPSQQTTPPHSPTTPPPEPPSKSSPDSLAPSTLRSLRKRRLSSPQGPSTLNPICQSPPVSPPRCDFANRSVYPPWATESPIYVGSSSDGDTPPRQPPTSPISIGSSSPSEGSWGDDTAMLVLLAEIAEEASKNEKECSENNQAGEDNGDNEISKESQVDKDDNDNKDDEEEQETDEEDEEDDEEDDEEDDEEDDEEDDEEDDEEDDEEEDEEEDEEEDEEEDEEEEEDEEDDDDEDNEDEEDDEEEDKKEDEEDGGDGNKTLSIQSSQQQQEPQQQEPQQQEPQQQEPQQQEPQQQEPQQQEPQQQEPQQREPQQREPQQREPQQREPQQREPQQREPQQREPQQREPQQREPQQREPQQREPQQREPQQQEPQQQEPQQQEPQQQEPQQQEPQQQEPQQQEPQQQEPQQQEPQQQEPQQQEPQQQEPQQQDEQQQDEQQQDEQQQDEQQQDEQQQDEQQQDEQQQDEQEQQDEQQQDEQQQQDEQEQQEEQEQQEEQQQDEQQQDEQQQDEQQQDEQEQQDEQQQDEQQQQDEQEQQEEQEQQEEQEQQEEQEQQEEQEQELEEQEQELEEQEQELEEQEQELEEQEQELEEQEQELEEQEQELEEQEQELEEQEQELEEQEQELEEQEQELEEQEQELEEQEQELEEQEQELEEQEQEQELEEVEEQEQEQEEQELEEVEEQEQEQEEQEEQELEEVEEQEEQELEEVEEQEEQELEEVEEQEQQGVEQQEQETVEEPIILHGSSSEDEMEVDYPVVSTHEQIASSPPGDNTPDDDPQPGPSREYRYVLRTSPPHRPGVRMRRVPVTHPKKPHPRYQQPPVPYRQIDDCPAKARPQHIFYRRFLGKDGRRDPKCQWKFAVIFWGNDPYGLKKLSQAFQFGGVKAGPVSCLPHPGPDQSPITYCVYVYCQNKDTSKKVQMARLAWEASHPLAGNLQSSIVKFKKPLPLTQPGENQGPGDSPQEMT
T cruzi inh = T. cruzi replication inhibition; inhibition, % (test concentration not listed); hit rate 1.4% among 300,000; T. cruzi beta-gal in NIH3T3, luminescence, 90 h; AID 1885;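 active = mean inhibition across valid replicates above about 55%, limit read from the data; inconclusive = mean below that limit but half or more replicates reach it; inactive = mean below it, under half of replicates reach it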;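 note: signal also drops with host cell toxicity which is not excluded here; 0% = plate median of DMSO wells and 100% = zero luminescence signal; higher percent means less beta-gal luminescence so fewer parasites; stock transfer was 50 nL into about 50 µL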
RanGTP-Impb inh = disruptors of Ran-importin-beta complex formation – biochemical, FRET, CFP-Ran, YFP-importin-beta, homogeneous, primary screen | cell-free CFP-Ran/YFP-importin-beta FRET ratio | inhibition, % (test concentration not listed) | hit rate 1.1% among 300,000 | AID 2216;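 active = most replicates above 15%; inconclusive = exactly half above 15%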;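 note: 0% = DMSO wells and 100% = Ran loaded with GDP instead of GTP; wells of about 40 µL received 100 nL stock; the first replicate is given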
MLL AF4-AF9 inh = inhibitors of human MLL-AF4/AF9 interaction; AlphaScreen, biotin-AF4 peptide binding to FLAG-AF9; P42568; inhibition, % at 10 µM; hit rate 0.47% among 350,000;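 active = every replicate reaching a set inhibition limit, whatever the replicate mean, cut at about 25% in these data; inconclusive = mean inhibition reaches that limit but some replicates miss it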;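 note: 0% = plate neutral control median and 100% = total signal loss; the record names both 10 and 1 µM as test concentration; the first replicate is given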
Vif TR-FRET = inhibitors of Vif binding to APOBEC3G peptide, primary screen, biochemical, TR-FRET, GST-Vif 1-94, biotin-A3G peptide, dose response retest (AID 1117319); one-dose inhibition, %; IC50 in µM for titrated hits; TR-FRET GST-Vif / biotin-A3G peptide binding; higher % means a stronger effect; test concentration not given here; strong numbers were not always called active; hit rate 0.57% among 260,000;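 active = above the screen mean plus three standard deviations and confirmed in dose response; inconclusive = results disagree or hit not tested in dose response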;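 note: Vif residues 1-94 fused to GST binding biotinylated APOBEC3G peptide 110-148; 0% = full assay without inhibitor and 100% = GST in place of GST-Vif; retest series ran down from 100 µM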
A1 inh = inhibitors of the anti-apoptotic protein A1, read as caspase activation; hit rate 0.066% among 330,000; caspase activation, % (concentration not given with the values); AID 2462; MEF A1-2A-BIM cells, Caspase-Glo 3/7 luminescence, 3 h; percent of clofoctol response, vehicle zero;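 active = over half of replicate activation scores above 10%, or exactly half above 10 with the replicate mean above 10; inconclusive = replicate mean below 10 yet half the replicates above 10; inactive = over half of replicates below 10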;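 note: wells of about 30 µL received 50 nL stock; many hits fall short of the cut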
The depositor's hits bear a star.

`CCN(CC)C(=O)c1sc2nc(-c3ccccc3)ccc2c1N` gave Calb FLC -5, Beta cell apopt -4, LANA-H2B inh 2.2, T cruzi inh 8, RanGTP-Impb inh -0.1, MLL AF4-AF9 inh -26, Vif TR-FRET 22% and A1 inh -1.8.
For O=Cc1cc(N=Nc2ccccc2Cl)ccc1O the results were Calb FLC 86*, Beta cell apopt -6, LANA-H2B inh 0.8, T cruzi inh 2, RanGTP-Impb inh -4.4, MLL AF4-AF9 inh -0.6, Vif TR-FRET 6% and A1 inh 0.1.
`Cc1c(NC(=O)C2CCCN2S(=O)(=O)c2ccc(Cl)cc2)c(=O)n(-c2ccccc2)n1C` (stereo not drawn) gave Calb FLC -16, Beta cell apopt -4, LANA-H2B inh -6.9, T cruzi inh -9, RanGTP-Impb inh 3.7, Vif TR-FRET 2% and A1 inh 1.3.
For COC(=O)c1cccc(COC(=O)CNC(=O)c2ccco2)c1 the results were Calb FLC 16, Beta cell apopt -1, LANA-H2B inh 6.2, T cruzi inh -9, RanGTP-Impb inh -1.8, Vif TR-FRET 4% and A1 inh 0.5.
`CCOC(=O)c1c(NC(=O)C2CCCCC2)sc2c1CCN(CC)C2` gave Calb FLC 11, Beta cell apopt -4, LANA-H2B inh 5.3, T cruzi inh 21, RanGTP-Impb inh 20* and MLL AF4-AF9 inh -1.2.
Screening CC(C)(C)c1cc(CCC(=O)NCc2ccccn2)cc(C(C)(C)C)c1O returned Calb FLC -1, LANA-H2B inh 12, T cruzi inh 15, RanGTP-Impb inh 0.6, MLL AF4-AF9 inh 2.0 and A1 inh -0.7.
For CNC(=O)Nc1cccc(-c2ccnc(C)n2)c1 the results were Calb FLC 5, Beta cell apopt 0, LANA-H2B inh 1.4, T cruzi inh 13, RanGTP-Impb inh -0.5, MLL AF4-AF9 inh -1.2, Vif TR-FRET -11% and A1 inh -2.2.
Screening CN(C)/C=N/c1c(C(=O)NCc2ccccc2)nnn1Cc1ccccc1 returned Calb FLC -4, Beta cell apopt -3, LANA-H2B inh -2.3, T cruzi inh 11, RanGTP-Impb inh 0.3, Vif TR-FRET 3% and A1 inh 0.1.
For Cc1c(C(=O)N/N=C/c2cccs2)nc2ccccn12 the results were Calb FLC 21, Beta cell apopt -7, LANA-H2B inh 0.0, T cruzi inh -2, RanGTP-Impb inh -0.7, MLL AF4-AF9 inh 5.5, Vif TR-FRET 32% and A1 inh -0.8.
Nc1cccc2c1nnn2C1OC(CO)C(O)C(O)C1O (stereo not drawn) was read as Calb FLC -1, Beta cell apopt -6, LANA-H2B inh -23, T cruzi inh 1, RanGTP-Impb inh 5.4, MLL AF4-AF9 inh -0.4, Vif TR-FRET 11% and A1 inh 0.1.
Screening CCC(C)NS(=O)(=O)c1ccc(NC(=O)c2cccs2)cc1 (stereo not drawn) returned Calb FLC 4, Beta cell apopt 6, LANA-H2B inh -3.6, T cruzi inh -14, RanGTP-Impb inh -3.1, MLL AF4-AF9 inh -2.7, Vif TR-FRET -4% and A1 inh -2.5.
For Cc1cc(C(=O)Nc2sc(C)c(-c3ccc(F)cc3)c2C(N)=O)no1 the results were Calb FLC 6, Beta cell apopt -4, LANA-H2B inh 2.8, T cruzi inh 22, RanGTP-Impb inh 3.6, Vif TR-FRET 20% and A1 inh -1.9.
`O=C(Nc1ccc2oc(Cc3ccc(Cl)cc3)nc2c1)c1cccnc1` gave Calb FLC -4, Beta cell apopt -2, LANA-H2B inh -4.2, T cruzi inh -3, RanGTP-Impb inh -3.4, Vif TR-FRET 15% and A1 inh 0.2.
`COc1ccccc1C(=O)Nc1ccccc1N1CCCCC1` gave Calb FLC -1, Beta cell apopt 0, LANA-H2B inh -4.6, T cruzi inh 9, RanGTP-Impb inh -4.1, MLL AF4-AF9 inh 4.5, Vif TR-FRET -1% and A1 inh -1.3.
CC1CC(C)CN(S(=O)(=O)c2ccccc2[N+](=O)[O-])C1 (stereo not drawn) was read as Calb FLC 4, Beta cell apopt 0, LANA-H2B inh 2.1, T cruzi inh -1, RanGTP-Impb inh -4.4, Vif TR-FRET inconclusive and A1 inh 0.7.
Screening COc1cc(-c2nc(-c3ccccc3)c(-c3cccs3)[nH]2)cc(OC)c1OC returned Calb FLC 2, Beta cell apopt 41, LANA-H2B inh -3.9, T cruzi inh 62*, RanGTP-Impb inh -36, Vif TR-FRET -8% and A1 inh 0.6.
`CNC(=O)C1=C(C)NC(=S)NC1c1cc2c(cc1OC)CCCC2` (stereo not drawn) gave Calb FLC -2, Beta cell apopt -7, LANA-H2B inh -0.2, T cruzi inh -4, RanGTP-Impb inh -0.5, Vif TR-FRET 0% and A1 inh -1.1.
Screening CC(=O)c1ccc(NS(=O)(=O)c2ccc(-c3cnc(C4CC4)o3)cc2)cc1 returned Calb FLC 0, T cruzi inh -14, RanGTP-Impb inh 2.4 and Vif TR-FRET 8%.
`COc1cc2[nH]c(C(=O)N3CCC(Cc4ccccc4)CC3)cc2c(OC)c1OC` gave Calb FLC 29, Beta cell apopt 6, LANA-H2B inh -1.4, T cruzi inh 33, RanGTP-Impb inh 6.0, MLL AF4-AF9 inh 6.7, Vif TR-FRET -11% and A1 inh -0.3.
CC1CC(=O)N(CC(=O)Nc2cccc(Cl)c2)c2ccccc2S1(=O)=O (stereo not drawn) was read as Calb FLC 32, Beta cell apopt -3, LANA-H2B inh 6.8, T cruzi inh -1, RanGTP-Impb inh 19*, MLL AF4-AF9 inh -9.3 and A1 inh 0.8.
Screening O=C(c1ccc(Cl)c(S(=O)(=O)N2CCCC2)c1)N1CCN(c2ccccn2)CC1 returned Calb FLC 16, Beta cell apopt -6, LANA-H2B inh 0.5, T cruzi inh 10, RanGTP-Impb inh -3.8, Vif TR-FRET 2% and A1 inh -0.4.
For O=C(Nc1cccc(-c2nnc(-c3ccco3)o2)c1)c1ccccc1 the results were Calb FLC 38, Beta cell apopt 3, LANA-H2B inh 4.1, T cruzi inh -4, RanGTP-Impb inh 7.2, MLL AF4-AF9 inh 2.6, Vif TR-FRET -5% and A1 inh -0.8.
COc1ccc(NC(=O)CCCCCN2C(=O)CCC2=O)cc1Cl was read as Calb FLC 10, Beta cell apopt 5, LANA-H2B inh 3.2, T cruzi inh 15, RanGTP-Impb inh -0.4, Vif TR-FRET -2% and A1 inh 0.7.
`CC(=O)c1cccc(NC(=S)NC(=O)c2ccc(C)cc2Cl)c1` gave Calb FLC 20, Beta cell apopt 0, LANA-H2B inh 36*, T cruzi inh -16, RanGTP-Impb inh 0.8, MLL AF4-AF9 inh -2.0, Vif TR-FRET inconclusive and A1 inh 0.2.
`CCCCOC(=O)c1ccc(NC(=O)CSc2nnnn2C)cc1` gave Calb FLC -5, Beta cell apopt -10, LANA-H2B inh -5.4, T cruzi inh -21, RanGTP-Impb inh -4.2, MLL AF4-AF9 inh -0.8, Vif TR-FRET -3% and A1 inh -0.2.
Screening COc1ccc(NC(=O)c2ccc(OC(=S)N(C)c3ccc(OC)cc3)cc2)cc1 returned Calb FLC 2, Beta cell apopt 7, LANA-H2B inh -3.2, T cruzi inh 11, RanGTP-Impb inh -0.3, Vif TR-FRET 9% and A1 inh 0.0.
`C/C=C/c1ccc(OCCOc2cccc3cccnc23)c(OC)c1` gave Calb FLC -2, Beta cell apopt -4, LANA-H2B inh -3.5, T cruzi inh 21, RanGTP-Impb inh 0.7, MLL AF4-AF9 inh -1.0, Vif TR-FRET -1% and A1 inh 0.2.
For Cc1ccc(C(=O)Nc2cccc(NC(=O)CN3CCCCC3)c2)cc1 the results were Calb FLC -1, Beta cell apopt 6, LANA-H2B inh 11, T cruzi inh 8, RanGTP-Impb inh -3.3, MLL AF4-AF9 inh 5.1 and A1 inh -2.4.
For CCSc1nnc(-c2ccc(S(=O)(=O)N3CCOCC3)cc2)n1C the results were Calb FLC 0, Beta cell apopt -2, LANA-H2B inh -7.5, T cruzi inh -16, RanGTP-Impb inh 0.5, MLL AF4-AF9 inh -1.3, Vif TR-FRET -4% and A1 inh 0.2.
`CN(C)S(=O)(=O)c1ccc(Cl)c(NC(=O)COC(=O)C2CCCO2)c1` (stereo not drawn) gave Calb FLC -24, Beta cell apopt -9, LANA-H2B inh -1.5, T cruzi inh -1, RanGTP-Impb inh 1.1, MLL AF4-AF9 inh 0.5 and A1 inh 0.7.
`CCCCN(C)S(=O)(=O)c1ccc(C(=O)Nc2nnc(CSC)o2)cc1` gave Calb FLC 3, LANA-H2B inh -2.9, T cruzi inh -33, RanGTP-Impb inh 0.3, Vif TR-FRET -3% and A1 inh 0.8.
`Cc1cc(C)c(C)c(OC(=O)c2sc(Cl)nc2C)c1` gave Calb FLC 7, Beta cell apopt 35, LANA-H2B inh -6.6, T cruzi inh -22, RanGTP-Impb inh 2.7, Vif TR-FRET -7% and A1 inh -0.9.
Screening CS(=O)(=O)n1nc(-c2ccccc2)nc1NCc1ccco1 returned Calb FLC 0, Beta cell apopt -3, LANA-H2B inh -0.6, T cruzi inh -5, RanGTP-Impb inh 4.1, Vif TR-FRET 3% and A1 inh 0.0.
CC(C)Cn1cc(C(=O)N2CCN(c3ccccn3)CC2)c2c3ccccc3n(C)c2c1=O was read as Calb FLC 22, Beta cell apopt 2, LANA-H2B inh 0.5, T cruzi inh 42, RanGTP-Impb inh -1.1, Vif TR-FRET 0% and A1 inh -0.3.
Screening O=C(Nc1ccc(F)c(F)c1)c1cccnc1 returned Calb FLC -11, Beta cell apopt 24, LANA-H2B inh -0.3, T cruzi inh -9, RanGTP-Impb inh 2.1, Vif TR-FRET 5% and A1 inh 0.0.
`CN(C)C(C)(C)C#CC(O)(c1ccccc1)c1ccccc1` gave Calb FLC -2, Beta cell apopt -1, LANA-H2B inh -0.8, T cruzi inh -15, RanGTP-Impb inh 1.4, MLL AF4-AF9 inh -0.6 and A1 inh 0.0.
`CCOC(=O)N1CCN(C(c2cccc(OC)c2)c2sc3nc(C)nn3c2O)CC1` (stereo not drawn) gave Calb FLC 1, Beta cell apopt -9, LANA-H2B inh -0.2, T cruzi inh -3, RanGTP-Impb inh -0.3, Vif TR-FRET 7% and A1 inh 0.4.
Screening Cc1cc([N+](=O)[O-])nn1CCCC(=O)Nc1cc(Cl)ccc1Cl returned Calb FLC 1, Beta cell apopt -1, LANA-H2B inh -0.5, T cruzi inh -13, RanGTP-Impb inh -2.5, MLL AF4-AF9 inh 1.3, Vif TR-FRET -2% and A1 inh 1.0.
For CCN1CCN(Cc2ccc(OCc3ccccc3)c(OC)c2)CC1 the results were Calb FLC -5, Beta cell apopt 4, LANA-H2B inh 5.1, T cruzi inh 50, RanGTP-Impb inh 2.2, Vif TR-FRET 3% and A1 inh 1.6.
For Cc1noc(C)c1C(=O)OCC(=O)NCc1ccc(Cl)cc1 the results were Beta cell apopt -1, LANA-H2B inh -0.3, MLL AF4-AF9 inh -1.9 and A1 inh -0.7.
